# High-throughput results: PubChem BioAssay, National Center for Advancing Translational Sciences (NCATS)
# PMP22 txn prim: modulators of PMP22 gene transcription in S16 Schwann cells; 43,000 tested, 2% active; Potency, µM (series often up to 57.5 µM), for the others: at the top dose activity change, negative = inhibition, usual class: inhibitors; S16 Pmp22-F2sN Schwann cells (luciferase reporters placed in the Pmp22 gene), FLuc/NLuc coincidence luminescence, 24 h; active = clear falling dose curves in both reporters; inconclusive = both reporters move, but less clearly or upward; inactive = either reporter flat; the % is the NLuc reporter signal; further: on the % scale 0 is the no-effect control and ±100 the full control effect; some results filed as inactive show a strong effect at the top dose
#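 S16 Schwann cells carrying FLuc/NLuc coincidence reporter in the Pmp22 3' UTR treated with compound 24 h at 37C; FLuc then NLuc luminescence read sequentially by dual-luciferase reagents.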
# HTT prom inh: inhibitors of huntingtin promoter activity; HEK293 HTT promoter firefly luciferase reporter (activity 0% = vehicle and -100% = no light), 24 h; Potency, µM (highest dose often 57.5 µM), for inactives: top-dose activity change, negative = inhibition, actives largely listed as inhibitors; 48,000 tested, 0.93% active; AID 1508623; active means well fitted inhibition curve with a large enough effect; inconclusive means small, poorly fitted or top-dose-only effect; inactive means no such curve, though single readings can be large or run the other way; further: nearly all actives have a fitted effect of over 50% in size
#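 Quantitative HTS used concentration series of up to 57.5 uM final on HEK293 luciferase reporter cells, 24 h at 37 degrees C. Readout was Dual-Glo firefly luminescence.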
# * = called active by the depositor; ? = inconclusive; / = not tested or not shown; [ ] = remark or other dose. Potency means the concentration at half of the fitted maximal effect.
# Results follow in this order: PMP22 txn prim | HTT prom inh
Cc1cccn2c(=O)cc(CSc3nnc(NC(=O)COc4ccc(F)cc4)s3)nc12
→ -9% | -7%
CSc1ccc(/C=C/c2nc3ccccc3n2S(=O)(=O)c2ccc(Br)cc2)cc1
→ ? | ?
COc1ccccc1N1CCN(c2ccc(=O)n(CC(=O)NCc3ccc(OC(C)C)cc3)n2)CC1
→ -37% | -19%
Cc1cccc(N(C)c2ccc3cc(S(=O)(=O)N4CCCC4)ccc3n2)c1
→ -23% | 2%
Cc1ccc(NC(=O)CN2Cc3ccccc3C2=O)c(C)c1
→ 14% | -11%
CCc1ccc(NC(=O)CN(c2cc(C)cc(C)c2)S(=O)(=O)c2c(C)[nH]c(=O)[nH]c2=O)cc1
→ 44% | -16%[11.5 µM]
COC(=O)c1c(SC)nc2ccccc2c1OCc1ccc(C)cc1
→ -11% | 1%
Cc1cccc(NC(=O)CSc2nc3ccc(NC(=O)COc4ccccc4F)cc3s2)c1
→ ? | -24%
CCOc1ccc(NC(=O)CN2C(=O)C(c3ccccc3)=NC23CCCCCC3)cc1
→ -4% | -26%
CCCCOc1cccc(C(=O)N(Cc2ccc(Cl)cc2)C2CCS(=O)(=O)C2)c1 (stereo unspecified)
→ -10% | ?
CCOC(=O)Cn1c(=O)oc2cc(S(=O)(=O)N3CCN(c4ccccc4F)CC3)ccc21
→ ? | ?
Cc1c(C(=O)OC2CCCCC2)[nH]c2c1C(=O)CC(c1ccc(C(C)(C)C)cc1)C2 (stereo unspecified)
→ -3% | -11%
CCCN1CCN(c2cc3c(cc2F)c(=O)c(S(=O)(=O)c2ccc(Cl)cc2)cn3C)CC1
→ -3% | -19%
Cc1cc(Br)ccc1NC(=O)CCS(=O)(=O)c1cccc2nonc12
→ -16% | -14%
Cc1ccc(Cn2cc(S(=O)(=O)c3ccc(C)cc3)c(=O)c3cc(F)c(N4CCCC4)cc32)cc1
→ -19% | 5%
CCn1cc(S(=O)(=O)c2cccc(Cl)c2)c(=O)c2cc(F)c(N3CCC(C)CC3)cc21
→ 51% | -10%
CC/C(=C(/CC)c1ccc(O)cc1)c1ccc(O)cc1
→ / | ?
CCc1ccc(C(=O)c2cnc3ccc(C)cc3c2S(=O)(=O)c2ccc(OC)cc2)cc1
→ ? | -43%
CCOCCc1nn2c(=O)cc(COC(=O)c3ccccc3NC(=O)c3ccc(C)cc3)nc2s1
→ 0% | 0%
Cc1cccc(NC(=O)Cn2nnc(C(=O)Nc3ccc(F)c(Cl)c3)c2N)c1
→ -7% | -15%
O=C(c1ccc(CSc2nc3ccncc3n2Cc2ccc(F)cc2)cc1)N1CCCCCC1
→ -79% | ?
Cc1nn(C)c2c1c(C(F)(F)F)cc(=O)n2CC(=O)NCCC(C)C
→ -5% | -14%
CC1=C(C(=O)Nc2ccc(Cl)cc2)C(c2cccs2)n2nc(SCc3cccc(C)c3)nc2N1 (stereo unspecified)
→ -11% | 0%
CCOC(=O)c1c(C)[nH]c(C)c1S(=O)(=O)N1CCC(C(=O)Nc2ccc(OC)c(OC)c2)CC1
→ 14% | -11%
Cc1ccccc1C(=O)Nc1nc(-c2ccc(Br)cc2)ns1
→ ? | ?
CCOC(=O)c1cc(OC(=O)c2ccccc2F)n(-c2ccccc2)n1
→ 1% | -1%
Cc1ccc(-n2ncc(C(=O)NCCN3CCc4ccccc4C3)c2C2CCN(C(=O)OC(C)(C)C)CC2)cc1C
→ ? | ?
CC(CNC(=O)Cn1ccc2cc(S(=O)(=O)N3CCCCCC3)ccc21)c1ccccc1 (stereo unspecified)
→ ? | ?
O=C(CSc1nccn1Cc1ccc(F)cc1)Nc1nc2ccccc2s1
→ -89% | ?
CCN(CC)C(=O)C1CCCN(c2ncnc3onc(C)c23)C1 (stereo unspecified)
→ ? | -24%
COc1ccc(-c2nc3cc(C(C)C)ccc3o2)cc1NC(=O)c1ccccc1[N+](=O)[O-]
→ ? | -12%
CCOc1ccc(CCNC(=O)c2oc(=O)c3ccccc3c2-c2ccc(C)cc2)cc1OCC
→ ? | ?
COc1ccc(-n2nc(C(=O)N3CCN(c4ccccc4OC)CC3)c3c4ccccc4n(C)c3c2=O)cc1Cl
→ -3% | 1%
CCCOc1cccc(C(=O)Nc2cccc(NC(=O)c3ccc(C(C)(C)C)cc3)c2)c1
→ ? | 29%
Cc1ccc(N2CC(NC(=O)CCc3ccccc3)CC2=O)cc1 (stereo unspecified)
→ 18% | -18%
Cn1cc(-c2cc3n(n2)CCC(=O)N3CCCC(=O)NCc2ccc(F)cc2)c2ccccc21
→ ? | -25%
Cc1ccc(-n2nc(CO)c(C(=O)NCc3ccccn3)n2)cc1
→ -7% | -8%
CCOc1ccc(CC(=O)NCCc2csc(-c3ccc(Cl)cc3)n2)cc1
→ -5% | ?
COc1ccccc1-c1cc2nc(C)c(CCC(=O)O)c(C)n2n1
→ 28% | ?
Nc1nc2c(ncn2CCC(CO)CO)c(=O)[nH]1
→ / | -6%

# Structures listed so far with an aryl thioether with sulfur outside any ring (seven):
# Results follow in this order: PMP22 txn prim | HTT prom inh
Cc1cccn2c(=O)cc(CSc3nnc(NC(=O)COc4ccc(F)cc4)s3)nc12
→ -9% | -7%
CSc1ccc(/C=C/c2nc3ccccc3n2S(=O)(=O)c2ccc(Br)cc2)cc1
→ ? | ?
COC(=O)c1c(SC)nc2ccccc2c1OCc1ccc(C)cc1
→ -11% | 1%
Cc1cccc(NC(=O)CSc2nc3ccc(NC(=O)COc4ccccc4F)cc3s2)c1
→ ? | -24%
O=C(c1ccc(CSc2nc3ccncc3n2Cc2ccc(F)cc2)cc1)N1CCCCCC1
→ -79% | ?
CC1=C(C(=O)Nc2ccc(Cl)cc2)C(c2cccs2)n2nc(SCc3cccc(C)c3)nc2N1 (stereo unspecified)
→ -11% | 0%
O=C(CSc1nccn1Cc1ccc(F)cc1)Nc1nc2ccccc2s1
→ -89% | ?

# (further entries)
Structure	PMP22 txn prim	HTT prom inh
COc1ccc(Cl)cc1NC(=O)c1nnn(Cc2cccc(C(F)(F)F)c2)c1N	?	?
O=C(Nc1c(C(=O)N2CCN(c3ccc(F)cc3)CC2)oc2ccccc12)c1ccco1	-16%	-22%
CC1CCN(S(=O)(=O)c2ccc3c(c2)oc(=O)n3CC(=O)N2CCCCC2)CC1	18%	-30%
CCc1ccc(NC(=O)c2ccc(CN3CC(=O)N4CCCCC4C3=O)cc2)cc1 (stereo unspecified)	4%	-29%
Cc1cc(C)cc(OCC(=O)N(Cc2ccco2)Cc2ccccc2Cl)c1	?	?
CC(Oc1ccccc1)C(=O)Nc1cccc(-c2cn3cccnc3n2)c1 (stereo unspecified)	?	-18%
O=C(C1CCC1)N1CCCc2cc(S(=O)(=O)N3CCN(c4cccc(Cl)c4)CC3)ccc21	-2%	-17%
Cc1ccn2c(Nc3ccc(C(C)C)cc3)c(-c3ccsc3)nc2c1	?	1%
Cc1cccc(CNC(=O)c2ccc3nc(Cc4ccccc4)oc3c2)c1	1%	-21%
CCOc1ccc(OCC)c(NC(=O)c2nnn(Cc3cc(Br)ccc3OC)c2N)c1	-16%	-13%
COc1cc(CNCc2c(C(=O)O)c(C)n(Cc3cccc(Cl)c3)c2C)cc(OC)c1OC	1%	9%
O=C(c1ccc(F)cc1)N1CCc2c([nH]c3ccccc23)C1c1ccc(Cl)cc1 (stereo unspecified)	?	?
COc1ccc(CC(=O)NCCc2csc3nc(-c4ccccc4F)nn23)cc1	?	0%
CC(C)Oc1ccc(CNC(=O)C2CCN(c3nc4ccccc4nc3C(F)(F)F)CC2)cc1	?	?
O=C(CC(c1cccs1)N1Cc2ccccc2C1=O)Nc1ccc(F)c(Cl)c1 (stereo unspecified)	?	-21%
COc1ccc(/C=C/c2nc(C#N)c(NCc3ccc(C)cc3)o2)cc1OC	-6%	-14%
Cc1cccc(CS(=O)(=O)c2ncc(Cl)c(C(=O)Nc3nnc(C(C)C)s3)n2)c1	9.6µM*	?
O=C(Nc1ccc2oc(-c3cccnc3)nc2c1)c1ccc(-c2ccccc2OC(F)(F)F)o1	?	?
CN(C(=O)CSc1nc2ccc(NC(=O)COc3ccccc3Cl)cc2s1)c1ccccc1	?	0%
Cc1oc(-c2ccc(Cl)cc2)nc1CN1CCCC(C(=O)NCCc2ccccc2)C1 (stereo unspecified)	19µM*	?
Cc1ccc(-c2cc(C(F)(F)F)n3nc(C(=O)Nc4ccc(Cl)cc4Cl)cc3n2)cc1	10%	-15%[11.5 µM]
CCN(CC)S(=O)(=O)c1nnc(NC(=O)COc2cccc(C)c2)s1	28%	-14%
CC(=O)Nc1c(C)nn(-c2ccccc2)c1N1CCC(C(=O)Nc2ccc(C)cc2Cl)CC1	-7%	-9%
O=C(CC1Nc2cccc3cccc(c23)NC1=O)Nc1ccc(F)cc1 (stereo unspecified)	?	0%
Cc1ccc2c(=O)c(C(=O)c3cccc(Cl)c3)cn(CC(=O)Nc3ccccc3C(F)(F)F)c2n1	-17%	-5%
Cc1cn(C)c(CC(=O)N2CCN(c3cccc(C(F)(F)F)c3)CC2)c1C(=O)O	11%	?
CNC(=O)Oc1ccc2c(c1)[C@]1(C)CCN(C)[C@@H]1N2C	/	11%
COc1ccc(-c2noc(CSc3nnc(-c4ccccc4)n3C)n2)cc1	-6%	-15%
Cc1ccc(NC(=O)C2CCCN(C(=O)c3cnn(-c4ccc(F)cc4)c3-n3cccc3)C2)c(Cl)c1 (stereo unspecified)	?	-20%
Cc1ccc(C(=O)N(Cc2ccc(N(C)C)cc2)CC2CCCO2)cc1 (stereo unspecified)	5%	-1%
CCn1c(=O)c2sccc2n2c(CCC(=O)Nc3ccc(OC)cc3OC)nnc12	-4%	-12%
Cc1cn2c(=O)c(S(=O)(=O)NC(C)c3ccccc3)c(C)nc2s1 (stereo unspecified)	-25%	-8%
O=C(c1cnn(-c2ccc(F)cc2)c1-n1cccc1)N1CCN(c2ccc(Cl)cc2)CC1	-16%	-25%
Cc1cc(C)c2sc(N3CCN(C(=O)c4ccc(N(C)C)cc4)CC3)nc2c1	-19%	0%
Nc1cc(C(F)(F)F)c(-c2cc(N3CCOCC3)nc(N3CCOCC3)n2)cn1	/	?
COc1ccc(OC)c(CNC(=O)CN(c2ccc(C)cc2)S(=O)(=O)N(C)C)c1	-8%	-6%
CCOc1ccccc1NC(=O)CSc1nc2ccccc2nc1N1CCOCC1	-44%	-13%
Cc1ccc(C2=NN(CC(=O)NCCc3ccc(Cl)cc3)C(=O)CC2)cc1	-30%	-19%
CC(C)(C)NC(=O)Cn1cc(S(=O)(=O)Cc2ccc(F)cc2)c2ccccc21	-8%	-4%
COc1ccc(C2C(=O)N(C3CCCCC3)CC(=O)N2CCc2ccc(C)cc2)cc1OC (stereo unspecified)	-4%	9%
Oc1ccccc1C=NCc1ccccc1	/	0%
COc1ccc(Cl)cc1NC(=O)COc1cccc2c(=O)n(C)ccc12	2%	0%
O=S(=O)(c1ccccc1)c1nc(-c2cccc(Cl)c2)oc1NCc1ccccc1	6%	-7%
CC(=O)c1ccc(NC(=O)c2nc(-c3ccccc3)n(-c3ccc(C)cc3)n2)cc1	?	-4%
Cc1ccc2nc(NCCc3ccccc3)c3nncn3c2c1	-17%	8%

# Five entries out of the list, sorted by formula weight, smallest number first.
Structure	PMP22 txn prim	HTT prom inh
Cc1ccc(N2CC(NC(=O)CCc3ccccc3)CC2=O)cc1 (stereo unspecified)	18%	-18%
O=C(CC(c1cccs1)N1Cc2ccccc2C1=O)Nc1ccc(F)c(Cl)c1 (stereo unspecified)	?	-21%
O=C(Nc1c(C(=O)N2CCN(c3ccc(F)cc3)CC2)oc2ccccc12)c1ccco1	-16%	-22%
CCOC(=O)Cn1c(=O)oc2cc(S(=O)(=O)N3CCN(c4ccccc4F)CC3)ccc21	?	?
COc1cc(CNCc2c(C(=O)O)c(C)n(Cc3cccc(Cl)c3)c2C)cc(OC)c1OC	1%	9%

# Following part:
Structure	PMP22 txn prim	HTT prom inh
Cc1ccc(-n2ncc(C(=O)NCc3cccs3)c2C2CCN(C(=O)OC(C)(C)C)CC2)c(C)c1	?	?
Cc1cccc(N2CCN(Cc3nnc(-c4ccccc4C)o3)CC2C)c1 (stereo unspecified)	-26%	-28%
COc1ccccc1NC(=O)CCCc1nnc2n(C)c(=O)c3sccc3n12	-27%	-8%
CCc1ccc(C2c3c(-c4cc(C)ccc4O)n[nH]c3C(=O)N2CCO)cc1 (stereo unspecified)	28%	-17%
CCc1ccc(NC(=O)C2CCN(S(=O)(=O)c3ccc4[nH]c5c(c4c3)CCCCC5)CC2)cc1	7%	?
O=C(Nc1cccc(C(=O)OCc2cc(=O)n3c4c(sc3n2)CCCC4)c1)c1cccc(F)c1	?	?
Cc1ccc(C)c(CN2C(=O)C(O)(c3c(C)[nH]c4ccccc34)c3ccccc32)c1 (stereo unspecified)	?	?
Cc1ccc(-n2nc(C(=O)N(C)c3ccc(C)c(C)c3)c3c4ccccc4n(C)c3c2=O)cc1	?	?
CN1C(C(=O)c2ccccc2)=C(NC(=O)c2ccccc2Br)c2ccccc2S1(=O)=O	19%	2%
CCCCOc1ccc(C(=O)N2CC(=O)Nc3ccc(Br)cc3C2c2ccc(F)cc2)cc1 (stereo unspecified)	?	?
CCN(CC)S(=O)(=O)c1ccc(C(=O)NCCSc2c(-c3ccccc3)[nH]c3ccccc23)cc1	?	?

# No enrichment for hits; about 2.7% have a hit in one of these screens.
